Compound activity deposited in PubChem by National Center for Advancing Translational Sciences (NCATS).
Rango dissoc inh: prevents RanGTP from dissociating the Rango-importin beta complex; actives 0.071% (n = 340,000); AID 540253; Biochemical FRET Rango-importin beta, RanGTP-induced dissociation; Potency, µM (series often up to 46.1 µM), inactives show at the highest dose activity change, negative = inhibition; O95149+P62826; active means falling FRET ratio curve, often poorly fitted, with flat reads before Ran was added; inconclusive means other falling curves, or compound fluorescence or quenching; inactive means flat or rising ratio curve;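 note: potency is the fitted concentration of half-maximal effect; % of control where 0% means no effect; nearly all actives have a fitted effect of over 45% in size; -100% = wells without RanGTP and RCC1; the record marks most hits as doubtful in a second field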
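Compounds sat 5 min at room temperature with 0.1 uM Rango biosensor plus 0.25 uM importin beta, then FRET pre-read. RanGTP-RCC1 (0.6 uM Ran, 2mM GTP, 0.2 uM RCC1) added for 45 min, and the CFP/YFP post-read measured blocked complex dissociation.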
Rango-impB inh: prevents formation of the Rango-importin beta complex | Rango CFP/YFP FRET sensor + importin beta, 45 min | AID 540263 | Q14974 | actives 0.031% (n = 340,000) | Potency, µM (titrated, usually from 92.2 µM), without a hit: top-dose inhibition of complex formation; active = rising FRET ratio curve, often small or poorly fitted; inconclusive = mostly compound fluorescence or quenching in the first reads; inactive = flat curves in all reads;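 note: potency is the fitted concentration of half-maximal effect; 0% = DMSO wells and 100% = buffer wells lacking importin beta; nearly all actives have a fitted effect of over 15% in size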
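Inhibition scored from the CFP 486 nm/YFP 530 nm FRET ratio 45 min after adding 0.125 microM importin beta to 50 nM Rango biosensor preincubated 5 min with compound (room temperature, PBS with DTT, Tween-20, BSA). No-importin wells as positive control.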
miR-21 reporter: miR-21 reporter, rising signal; Potency, µM (doses to about 38.3 µM), inactives show top-dose reporter change, positive = more light; HeLa miR-21 FLuc reporter, luciferase, 48 h; 340,000 tested, under 10 active; active = well fitted rising curve with a large enough effect; inconclusive = small, poorly fitted or top-dose-only effect; inactive = no such curve, though single readings can be large or run the other way;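 note: % of control where 0% means no effect; miR-21 action dims this reporter so a rising signal means less miR-21 action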
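HeLa cells endogenously expressing miR-21, stably carrying CMV-driven firefly luciferase with a downstream miR-21 binding site, 2000 cells/well. Titrations up to approximately 40 uM, 48 hours; luciferase luminescence read.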
GLA inh pH 4.5: blocks human alpha-galactosidase A at pH 4.5. 230,000 tested, under 10 active. P06280. activity change, negative = inhibition, % at 105 µM. purified enzyme, 4-MU-alpha-Gal fluorescence, pH 4.5. AID 1467; inconclusive = small, poorly fitted or top-dose-only inhibition, or a rising curve; inactive = flat fitted curve, though single readings scatter; no compound was filed as active;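 note: 0% = full activity with enzyme and -100% = basal without enzyme; dose as in the result columns while the protocol names 77 µM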
Target sequence (P06280 whole entry, looked up): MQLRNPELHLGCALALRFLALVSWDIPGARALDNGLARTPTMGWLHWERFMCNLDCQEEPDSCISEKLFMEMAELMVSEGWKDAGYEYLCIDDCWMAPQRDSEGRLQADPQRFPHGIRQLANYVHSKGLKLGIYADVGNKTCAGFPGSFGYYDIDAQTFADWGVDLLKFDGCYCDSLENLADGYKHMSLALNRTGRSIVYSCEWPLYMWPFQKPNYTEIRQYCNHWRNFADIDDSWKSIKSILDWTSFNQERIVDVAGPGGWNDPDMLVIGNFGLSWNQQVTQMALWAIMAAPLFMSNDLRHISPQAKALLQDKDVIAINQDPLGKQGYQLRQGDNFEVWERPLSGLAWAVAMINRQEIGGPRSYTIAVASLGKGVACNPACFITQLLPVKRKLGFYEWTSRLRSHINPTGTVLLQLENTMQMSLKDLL
Starred values were filed as active, the others as inactive; ? = inconclusive; / = no result given. The list is partial; rates above refer to the full screens.

SMILES	Rango dissoc inh	Rango-impB inh	miR-21 reporter	GLA inh pH 4.5
CCN(CC)C(=O)c1c(NC(=O)c2ccccc2)sc(C)c1C	3%	-0.4%	-4%	3
O=C(CSCc1ccccc1)N1CCN(c2cccc(C(F)(F)F)c2)CC1	1%	-1.8%	-8%	-6
O=C(NCc1ccco1)C1CCCN(S(=O)(=O)c2ccccc2)C1 (stereo unspecified)	1%	-3.3%	-5%	4
COc1cc(C(=O)N/N=C\c2ccccc2)c([N+](=O)[O-])c(OC)c1OC	3%	1.4%	11%	-13
COc1ccc(NC(=O)/C(C#N)=C\c2cc(C)n(-c3ccc4c(c3)OCO4)c2C)cc1	-21%	?	21%	-9
COc1ccc(NC(=O)COC(=O)[C@@H]2CCCN2S(=O)(=O)c2ccccc2F)c(OC)c1	0%	-0.7%	0%	-3
COc1ccc(C(=O)NCc2nnc(SCC(=O)c3ccccc3)n2C)cc1	-5%	-1.2%	0%	8
O=C(CSc1ccc(-c2ccco2)nn1)NCc1ccc2c(c1)OCO2	2%	8.4%	-3%	3
O=c1c(-c2ccc3c(c2)OCCO3)coc2cc(O)cc(O)c12	14%	-4.9%	-26%	-1
Cc1ccc(S(=O)(=O)N2CCC(=O)N(C(CO)C(C)C)CC2)cc1 (stereo unspecified)	-22%	-3.0%	-10%	8
CC1Oc2ccccc2N(Cc2ccc(F)cc2)C1=O (stereo unspecified)	2%	1.4%	-4%	/
Cc1ccc2nc(SCc3cn4c(C)cc(C)nc4n3)[nH]c2c1	/	/	-2%	8
CC(C)(C)c1ccc(Oc2ccc(NC(=O)c3cccs3)cn2)cc1	-1%	0.1%	?	-12
COc1ccc(NC(=O)C2CCN(c3cc(-c4ccccc4)nc4ncnn34)CC2)cc1OC	19%	-1.5%	-1%	-2
O=C(Nc1ccccc1N1CCCC1)c1ccc(Br)o1	?	3.1%	-26%	-2
CN(Cc1ccccc1)C(=O)c1cccc(NC(=O)C2CCCN(C(=O)OC(C)(C)C)C2)c1 (stereo unspecified)	-22%	3.8%	/	/
C=CCC(CC=C)(NC(=O)c1cccc(C)c1)c1ccccc1	-19%	-1.8%	-5%	-8
O=C(Nc1ccc2oc(-c3ccncc3)nc2c1)c1ccc(Br)o1	17%	0.3%	-6%	/
Cc1ccc(/C=C2\SC(N3CCCCC3)=NC2=O)cc1	-15%	8.8%	-53%	/
CCN(C[C@H]1N[C@@](C)(C(=O)OC)[C@H]2C(=O)N(Cc3ccccc3)C(=O)[C@@H]12)C(=O)c1ccc(C(C)(C)C)cc1	9%	3.1%	/	/
O=C(Nc1ccc(F)cc1F)c1cc2ccccc2oc1=O	5%	0.3%	-34%	/
C#CC[N+](C)(C)C(C#Cc1ccccc1)CC=C (stereo unspecified)	1%	0.2%	-4%	6
COc1ccc(C(O)(C(C)C)C(CN2CCOCC2)c2ccc(Cl)cc2)cc1 (stereo unspecified)	7%	2.6%	10%	/
Cc1ccccc1OCC(O)CN1CCN(c2ccccn2)CC1 (stereo unspecified)	1%	0.7%	-1%	-9
COc1ccccc1NC(=O)CN1C(=O)CC(C)S(=O)(=O)c2ccccc21 (stereo unspecified)	10%	-1.3%	0%	/

Given with bars between the fields: part of the list above.
compound | Rango dissoc inh | Rango-impB inh | miR-21 reporter | GLA inh pH 4.5
O=C(NCc1ccco1)C1CCCN(S(=O)(=O)c2ccccc2)C1 (stereo unspecified) | 1% | -3.3% | -5% | 4
COc1cc(C(=O)N/N=C\c2ccccc2)c([N+](=O)[O-])c(OC)c1OC | 3% | 1.4% | 11% | -13

Remaining list, next part
SMILES	Rango dissoc inh	Rango-impB inh	miR-21 reporter	GLA inh pH 4.5
Clc1cccc(CSc2nc3ccncc3[nH]2)c1	1%	-0.8%	-45%	-4
O=C(CSc1nc(Nc2ccccc2)nc(N2CCOCC2)n1)N1CCCC1	0%	5.0%	-4%	-1
CCN1C(=O)Cc2cc(S(=O)(=O)NCCc3ccccc3)ccc21	51%	0.3%	2%	/
CC(=O)c1cn(CC(=O)Nc2ccc(C)cc2)c2ccccc12	0%	-1.1%	9%	-16
O=C(NCC(c1ccc(F)cc1)N1CCOCC1)c1ccc(OCc2ccccc2)cc1 (stereo unspecified)	1%	-0.6%	/	/
O=C(NCc1nc2ccccc2[nH]1)c1cccc(S(=O)(=O)N2CCCCC2)c1	-10%	0.3%	2%	0
Cc1ccc(CNC(=O)CCS(=O)(=O)c2ccc3c(c2)NC(=O)C(C)S3)cc1 (stereo unspecified)	-12%	6.5%	14%	/
CN(c1ccccc1)c1nc(N)c([N+](=O)[O-])c(N2CCCCCC2)n1	-10%	-5.0%	-26%	-26
C/C(CC(=O)Nc1ccc2c(c1)OCCO2)=N\NC(=O)c1cccc(O)c1	-1%	-5.3%	-13%	/
CCN(C(=O)COC(=O)c1ccc2c(=O)n3c(nc2c1)CCC3)C1CCS(=O)(=O)C1 (stereo unspecified)	-16%	0.1%	2%	11
CCCCN(C(=O)Cc1ccc2c(c1)OCCO2)c1c(N)n(CCC)c(=O)[nH]c1=O	24%	1.1%	/	/
CCc1nc2oc3cc(OC)ccc3c(=O)c2c(=O)n1Cc1ccccc1	-7%	-0.5%	-3%	7
Cc1ccc(C23CC4CC(CC(C(=O)N5CCOCC5)(C4)C2)C3)cc1	1%	11%	17%	1
Nn1c(SCC(=O)Nc2ccccc2Oc2ccccc2)nnc1C1CC1	15%	-0.2%	/	/
Cc1ccc(/C=N/NC(=O)C(O)c2ccccc2)o1 (stereo unspecified)	-14%	0.6%	3%	5
CSc1nc(N)nc2c1ncn2CC(=O)N1CCN(Cc2c(C)cc(C)cc2C)CC1	-12%	-1.1%	/	/
CC(=O)OC1(C(F)(F)F)Oc2ccccc2NC1=O (stereo unspecified)	0%	-2.8%	-4%	1
O=c1cc[nH]c2c(C(F)(F)F)cccc12	-5%	-3.3%	-5%	-6
CS(=O)(=O)N(CC(=O)Nc1cccc(Br)c1)Cc1ccccc1	2%	3.2%	12%	/
CC(C)(C)NC(=O)C(c1ccco1)N(C(=O)Cn1nnc(-c2ccc(F)cc2)n1)c1ccccc1F (stereo unspecified)	4%	1.4%	13%	-13
O=C(CSc1ccc(-c2ccccn2)nn1)Nc1nccs1	8%	-0.6%	-9%	-2
COc1cccc(NC(=O)N2CCC(NC(=O)C(Cc3ccccc3OC)NC(C)=O)CC2)c1 (stereo unspecified)	16%	-0.8%	1%	/
N#C/C(=N\Nc1ccccc1F)C(=N)N1CCCCC1	-2%	3.8%	-71%	-1
Cc1ccc2[nH]c(C(F)(F)F)cc(=O)c2c1	1%	-0.3%	22%	8
COc1ccc(NC(=O)CSCC(=O)Nc2ccc(S(=O)(=O)N3CCCCC3)cc2)cc1	8%	8.9%	2%	/

Molecules above that contain a Cl atom, in the order listed:
SMILES	Rango dissoc inh	Rango-impB inh	miR-21 reporter	GLA inh pH 4.5
COc1ccc(C(O)(C(C)C)C(CN2CCOCC2)c2ccc(Cl)cc2)cc1 (stereo unspecified)	7%	2.6%	10%	/
Clc1cccc(CSc2nc3ccncc3[nH]2)c1	1%	-0.8%	-45%	-4

Remaining list, next part.
SMILES	Rango dissoc inh	Rango-impB inh	miR-21 reporter	GLA inh pH 4.5
O=C1/C(=C/c2ccc(O)c([N+](=O)[O-])c2)SC(=S)N1Cc1ccccc1	12%	-1.7%	1%	-2
O=c1c2c3nc4ccccc4nc3n(CC3CCCO3)c2ncn1CCc1ccccc1 (stereo unspecified)	1%	-2.4%	-1%	3
Oc1cccc(/C=N/Nc2nn3cnnc3c3ccccc23)c1	2%	-0.4%	-8%	-9
O=C(Nc1nnc(CCS(=O)(=O)c2ccc3ccccc3c2)s1)c1ccc([N+](=O)[O-])cc1	15%	?	-3%	4
Cc1ccc(S(=O)(=O)N2CCCC(C(=O)NCc3ccccn3)C2)cc1 (stereo unspecified)	7%	-2.1%	2%	-4
CCN(CC)C(=O)C1CCCN(c2ccc([N+](=O)[O-])cc2/C=N/NC(=O)c2cccc(Br)c2)C1 (stereo unspecified)	-13%	?	2%	-17
CC1(C)CC(=O)C2=C(C1)N(c1ccc(F)cc1)C(=O)NC2(C(F)(F)F)C(F)(F)F	27%	-1.8%	-4%	-4
Cc1nc2nc[nH]n2c(=O)c1NC(=O)CCc1ccccc1	1%	-0.5%	-4%	-2
C=CCn1c(Cc2nc3ccccc3[nH]2)n[nH]c1=S	-1%	-0.2%	-19%	4
Cc1cccc(N(C(=O)c2snc(C(N)=O)c2N)C(C(=O)NCC2CCCO2)c2ccc3ncccc3c2)c1 (stereo unspecified)	-19%	-1.4%	6%	/
COc1ccc(C/C(N)=N/OC(C)=O)cc1OC	1%	1.3%	-7%	4
O=C1CC(C(=O)Nc2ccc(C(=O)N3CCOCC3)cc2)C2(CCCCC2)O1 (stereo unspecified)	0%	-0.8%	-10%	-2
Cc1ccc(-n2nnnc2-c2cnc(N3CCCC3)nc2C(F)(F)F)cc1	9%	-1.0%	18%	-9
CC(C)(C)c1csc(NC(=O)c2cccnc2)n1	0%	-1.0%	-14%	/
Cc1ccc(C(=O)CN2CCN(c3ccccn3)CC2)c(C)c1	2%	0.0%	-10%	/
CC(=O)Nc1ccc(S(=O)(=O)N2CCN(Cc3ccncc3)CC2)cc1	1%	-7.8%	-3%	0
Cc1cccc(NC(=O)N2CCCC2C(=O)Nc2ccccc2)c1 (stereo unspecified)	-2%	-0.5%	-1%	9
O=S(=O)(c1ccccc1C(F)(F)F)N1CCN(S(=O)(=O)c2ccccc2C(F)(F)F)CC1	8%	-0.2%	-4%	0
Cc1noc(C)c1COc1ccc2ccc(=O)oc2c1	3%	4.5%	0%	7
CC(=NCCN1CCN(C(=S)Nc2ccccc2)CC1)C1=C(O)CC(C)(C)CC1=O	0%	1.9%	-3%	3
NS(=O)(=O)c1ccc(CCNC(=O)c2cncc(Br)c2)cc1	-13%	-0.3%	6%	7
C#CC1(NC(=O)NS(=O)(=O)c2ccc(C)cc2)CCCCC1	-3%	-5.5%	-2%	/
N#Cc1nc(-c2ccccc2Cl)oc1NCC1CCCO1 (stereo unspecified)	-12%	2.5%	-36%	-2
O=c1c2cnn(-c3ccccc3)c2nc(-c2cccs2)n1-c1cccc(Cl)c1	-12%	-3.6%	-8%	0
CC(=O)[C@H]1[C@H](C#N)C[C@H]2[C@@H]3CC=C4C[C@@H](O)CC[C@]4(C)[C@H]3CC[C@@]21C	-1%	3.0%	1%	/

6 of the compounds above, as a markdown table:
| structure | Rango dissoc inh | Rango-impB inh | miR-21 reporter | GLA inh pH 4.5 |
| --- | --- | --- | --- | --- |
| Cc1ccc(S(=O)(=O)N2CCCC(C(=O)NCc3ccccn3)C2)cc1 (stereo unspecified) | 7% | -2.1% | 2% | -4 |
| CCN(CC)C(=O)C1CCCN(c2ccc([N+](=O)[O-])cc2/C=N/NC(=O)c2cccc(Br)c2)C1 (stereo unspecified) | -13% | ? | 2% | -17 |
| CC1(C)CC(=O)C2=C(C1)N(c1ccc(F)cc1)C(=O)NC2(C(F)(F)F)C(F)(F)F | 27% | -1.8% | -4% | -4 |
| Cc1nc2nc[nH]n2c(=O)c1NC(=O)CCc1ccccc1 | 1% | -0.5% | -4% | -2 |
| C=CCn1c(Cc2nc3ccccc3[nH]2)n[nH]c1=S | -1% | -0.2% | -19% | 4 |
| Cc1cccc(N(C(=O)c2snc(C(N)=O)c2N)C(C(=O)NCC2CCCO2)c2ccc3ncccc3c2)c1 (stereo unspecified) | -19% | -1.4% | 6% | / |

Continuation.
SMILES	Rango dissoc inh	Rango-impB inh	miR-21 reporter	GLA inh pH 4.5
COc1cccc(-c2nc(CS(=O)(=O)CC(=O)Nc3c(C)cccc3C)c(C)o2)c1	-16%	2.0%	-13%	6
Cc1csc(NC(=O)CSCC(=O)O)c1-c1nc2ccccc2s1	2%	?	4%	-4
CSc1ccc(/C=C(/NC(=O)c2ccccc2)C(=O)NCCN2CCOCC2)cc1	-1%	0.8%	0%	/
Fc1ccc(NC(=S)NC2CC3CCC(C2)N3Cc2ccco2)cc1 (stereo unspecified)	6%	0.1%	-5%	-1
CC(C)N1CCc2[nH]c(=S)[nH]c(=O)c2C1	16%	0.6%	-4%	-8
Clc1ccc2nc(-c3ccc(Cl)nc3)[nH]c2c1	2%	1.7%	-18%	/
O=S(=O)(/N=C(\c1ccccc1)N1CCOCC1)c1cccs1	3%	2.1%	-6%	-2
